Screens: PubChem BioAssay, National Center for Advancing Translational Sciences (NCATS)
VDR inh = Inhibitors of the vitamin D receptor (VDR): qHTS. Vitamin D3 receptor (Homo sapiens), P11473. VDR-SRC2-3 peptide fluorescence polarization, 2 h. Potency, µM, inactives show max response, negative = inhibition, actives largely listed as inhibitors. 400,000 compounds, 0.93% hits. AID 504847, 2011; active = well fitted inhibition curve with a large enough effect; inconclusive = small, poorly fitted or top-dose-only effect, or another doubt; inactive = no such curve, though single readings can be large or run the other way; also: series mostly up to about 120 µM
Target sequence (P11473 whole entry, looked up): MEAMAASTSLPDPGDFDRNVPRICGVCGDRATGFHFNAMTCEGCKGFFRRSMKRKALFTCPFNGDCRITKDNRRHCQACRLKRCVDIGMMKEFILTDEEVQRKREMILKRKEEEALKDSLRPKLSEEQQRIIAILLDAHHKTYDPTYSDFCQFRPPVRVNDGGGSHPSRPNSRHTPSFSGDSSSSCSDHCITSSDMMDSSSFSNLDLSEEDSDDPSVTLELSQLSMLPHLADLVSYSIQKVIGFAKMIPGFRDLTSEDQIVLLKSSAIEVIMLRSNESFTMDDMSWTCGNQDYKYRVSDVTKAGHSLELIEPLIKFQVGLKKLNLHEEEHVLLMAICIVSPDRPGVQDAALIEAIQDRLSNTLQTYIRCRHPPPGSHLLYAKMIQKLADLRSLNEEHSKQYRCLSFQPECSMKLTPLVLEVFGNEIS
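VDR–SRC2-3 interaction, FP format. Cmpds 23 nl via pintool, brief spin, 2 h ambient incubation.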
The depositor's hits bear a star; ? = inconclusive; & = joins results of further samples; [ ] = remark or other dose. % is scaled to controls: 0 for no effect and ±100 for the full control effect; potency is read from the fitted curve at half-maximal effect.

Preview (two entries):
no.	Structure	VDR inh
1	CCc1c(C)c2ccc(OCC(=O)NCC3CCC(C(=O)O)CC3)c(C)c2oc1=O (centres undefined)	-3%
2	CC(=O)Nc1ccc(S(=O)(=O)N2CCN(c3ccc([N+](=O)[O-])cc3)CC2)cc1	-7%

This part in full (from the top)
no.	Structure	VDR inh
1	CCc1c(C)c2ccc(OCC(=O)NCC3CCC(C(=O)O)CC3)c(C)c2oc1=O (centres undefined)	-3%
2	CC(=O)Nc1ccc(S(=O)(=O)N2CCN(c3ccc([N+](=O)[O-])cc3)CC2)cc1	-7%
3	c1ccc(-c2nc3c([nH]2)CCc2nonc2-3)cc1	2%
4	CNC(=O)C1(C(F)(F)F)C/C(=C/CCO)CCCO1 (centres undefined)	-14%
5	O=C1CCc2nc3ccccc3c(=O)n2N1	3%
6	Cc1nn(-c2cccc(C(F)(F)F)c2)c(Cl)c1/C=N/Nc1cccc(C(=O)O)c1	?
7	CC1CN(C(=S)Nc2ccc(Cl)cc2)CC(C)O1 (centres undefined)	-25%
8	O=C(Cn1cnc2c(NCc3ccccc3)ncnc21)N1CCN(c2ccccn2)CC1	-1%
9	COc1ccc(-n2c(=O)c(C)nc3cnc(Oc4cccc(Cl)c4)nc32)cc1	0%
10	OCCCNc1nc(-c2ccccc2)c2cc(Br)ccc2n1	2%
11	C=CCNC(=O)c1ccc2c3n(nc2c1)-c1ccccc1CO3	1%
12	Nn1c(Nc2ccccc2)nc2sc3c(c2c1=O)CCCC3	-23%
13	COc1ccccc1CNC(=O)CSc1ccccc1	-2%
14	CN1CCN(C(=O)c2ccc(-c3ccccc3)cc2)CC1	-6%
15	CNC(=O)Nc1ccc(Cl)cc1	17%

no.	Structure	VDR inh
16	CC[C@H]1C(Nc2ccccc2)C[C@@H]2CCN3C(=O)CC[C@H]1[C@H]23 (some centres undefined)	-2%
17	COC(=O)Nc1ccc(N2CCOCC2)c(S(=O)(=O)N2CCOCC2)c1	10%
18	Cc1cc(C)n2nc(SCc3nnc(SCCCCl)o3)nc2n1	-4%
19	CC(=O)c1c(NCCc2ccccc2)cc(C)oc1=O	3%
20	COc1ccc(C(=O)N/N=C/c2cn[nH]c2-c2ccc(OC)cc2OC)cc1	?
21	CC1CC(C)(C)OC(c2ccc(C(C)C)cc2)O1 (centres undefined)	-10%
22	CCCc1cc(=O)c2ccc(OC/C(C)=N/O)cc2o1	-3%
23	COCCn1c(=O)c(-c2ccc(OC)cc2)nc2cnc(Nc3cccc(OC)c3)nc21	0%
24	CCN(CC)CCCn1c(=S)[nH]c2ccc(Cl)cc2c1=O	3%
25	CC(C)(C)OC(=O)C[C@@H]1C/C=C\C[C@H](CC(=O)N[C@@H](CO)Cc2ccccc2)C(=O)N[C@H](Cc2ccccc2)COC1=O	-11%
26	COc1ccccc1N(C(=O)CCl)c1cn(C(C)=O)c2ccccc12	6%
27	Cc1nc(CCNC(=O)CC2C(=O)NCCN2Cc2ccccc2)sc1C (centres undefined)	6%
28	CN(CC(=O)Nc1cccc(F)c1)C(=O)c1sccc1-c1ccccc1	0%
29	Cc1oc(-c2ccc(C(=O)NCc3ccccc3)cc2)nc1CS(=O)(=O)c1ccccc1	0%
30	CCN(CC)CCNC(=O)c1[nH]c2ccccc2c1Sc1ccc(Cl)cc1	9%

no.	Structure	VDR inh
31	Cc1ccc(NC(=O)CCc2c(C)nc3ncnn3c2C)cc1Cl	6%
32	O=C(O)CC1c2ccccc2C=Cc2ccccc21	-3%
33	COc1ccc(C(=O)C2CCCN(C(=O)c3cccnc3OC)C2)c(C)c1 (centres undefined)	4%
34	CCc1nnc(NC(=O)CSc2nnc(CNc3cccc(Cl)c3)n2CC)s1	7%
35	COc1ccc(C(=O)NN2CC(O)=C(c3nc4ccccc4n3C)C2=N)cc1OC	-4%
36	Nc1nonc1-n1nnc(C(=O)N/N=C/c2ccc(Br)cc2)c1CSC1=NCCS1	-23%
37	O=C(CCS(=O)(=O)c1ccc(Br)cc1)Nc1cc(F)ccc1F	14%
38	Cc1ccccc1-c1cncnc1Nc1ccc(F)cc1	-10%
39	O=C(c1cc(-c2ccccc2)on1)N1CCc2ccccc2C1	13%
40	O=C(CSc1nc(=O)[nH]c2c1CCCC2)Nc1ccccc1C(F)(F)F	-1%
41	CC(C)CC(=O)N1CCC(O)(CS(=O)(=O)Cc2ccccc2Cl)CC1	-5%
42	S=C(c1cccs1)N1CCCC1	15%
43	O=C(Nc1ccc(Br)cn1)c1ccc(Cl)s1	-5%
44	COc1ccc(-c2sc3ccc(OC)cc3c2-c2ccc(OCCN3CCOCC3)cc2)cc1	-9%
45	C#CCn1c(=NC(=O)c2cc(-c3cccs3)nc3ccccc23)sc2cc(S(N)(=O)=O)ccc21	-10%

no.	Structure	VDR inh
46	Cc1cc(C)c(C)c(OCC(=O)Nc2ccc(S(=O)(=O)Nc3nc(C)cc(C)n3)cc2)c1	2%
47	COc1ccc(-n2ncc3c2CC(C)(C)CC3NC(=O)CCCN2CCCC2=O)cc1 (centres undefined)	6%
48	CSc1cc(C)c(OCC(=O)Nc2c(C)nn(C)c2C)c(C)c1	-13%
49	CCOc1ccccc1/C=C(\C#N)C(=O)NC1CC1	?
50	COc1ccc(-c2noc(CNC(=O)c3ccoc3C)n2)cc1	0%
51	CCNC(=O)NC(=O)CN(C)c1ccccc1	34%[activator]
52	COc1ccccc1OCC(=O)NCc1ccco1	4%
53	O=C(CSc1nc(-c2ccccc2)cc(=O)[nH]1)Nc1ccc(F)c(F)c1	-1%
54	Cc1ccc(C)c(NC(=S)N2CCN(CCO)CC2)c1	-3%
55	Cc1cc(C)cc(NC(=S)N2CCN(c3ccc(F)cc3)CC2)c1	-7%
56	COc1cccc(N2C(=O)C3CCCN3C2c2cccs2)c1 (centres undefined)	-3%
57	O=C1CCC(C(=O)O)N1 (centres undefined)	-7%
58	CCOc1ccc(C(=O)OCC(=O)NC2CCCCCCC2)cc1	-1%
59	CN(CC(=O)Nc1cccc(F)c1)C(=O)c1ccc(-c2cccc(C(F)(F)F)c2)o1	-8%
60	Cc1ccc(NC(=O)C2CC(=O)N/C(=N/NC(=O)c3ccc(C)cc3)S2)cc1 (centres undefined)	-13%

no.	Structure	VDR inh
61	COc1ccc(-c2noc(C(C)n3nc(C)c([N+](=O)[O-])c3C)n2)cc1OC (centres undefined)	15%
62	CCc1nn2c(=O)cc(COc3ccc(NC(=O)c4ccco4)cc3)nc2s1	-9%
63	CC1CCC(NC(=O)c2cc(Cl)nc3ccccc23)CC1 (centres undefined)	12%
64	CCCCN(CC)CCCNC(=O)CC1Nc2ccccc2NC1=O (centres undefined)	6%
65	CN[C@@H]1[C@H](O[C@@H]2O[C@H](CO)[C@@H](N)[C@H](O)[C@@H]2O)O[C@H]2C[C@@H](N)[C@@H](O[C@H]3[C@@H](O)[C@H](O)[C@H](N)C[C@@H]3N)O[C@H]2[C@H]1O	-17%
66	COc1cc(C(=O)N/N=C/c2sc(N3CCOCC3)nc2-c2ccccc2)cc(OC)c1OC	7%
67	Cc1ccc(C(=O)N2CCN(CCNC(=O)C(=O)NC(C)C)CC2)cc1	7%
68	C=CCc1ccc(OCCCCN2CC(C)CC(C)C2)c(OC)c1 (centres undefined)	-8%
69	CC1=C(C#N)C(NC(=O)c2ccccc2Cl)(C(F)(F)F)C(=O)N1 (centres undefined)	-5%&6%
70	O=C(Nc1cc(S(=O)(=O)N2CCCCCC2)ccc1OCC(F)(F)F)C1CCC1	23%
71	O=S(=O)(Nc1ccc(S(=O)(=O)N2CCCCC2)cc1)c1cccs1	9%
72	Cc1noc(/C=C/c2ccccc2F)c1S(=O)(=O)N1CCC(C(=O)Nc2ccc(C#N)cc2)CC1	1%
73	Cn1c(=O)cc(SCC(=O)N2CCN(C(=O)c3ccco3)CC2)c2ccccc21	8%
74	CCOC(=O)C(CC)Sc1cc(C)nc2ccc(OC)cc12 (centres undefined)	-13%
75	CC(=O)C(C(c1ccccc1)c1c[nH]c2ccccc12)[N+](=O)[O-] (centres undefined)	2%

no.	Structure	VDR inh
76	OCC1OC(n2cnc3c(NCCc4ccccc4)ncnc32)C(O)C1O (centres undefined)	10%
77	Brc1ccc2nc(-c3ccccc3)c(Nc3ccc4c(c3)OCO4)n2c1	2%
78	Fc1ccc(COc2cccc(CNCc3ccncc3)c2)cc1	-2%
79	Cc1cc(OCC(=O)N2CCOCC2)c(C(C)C)cc1Cl	-11%
80	C/C(=N\Nc1nnc(C)c(=O)[nH]1)C(=O)O	12%
81	O=C1c2ccccc2CN1CCNS(=O)(=O)c1ccc2ccccc2c1	-11%
82	CCOc1ccc(N2CC(C(=O)NCc3ccc4c(c3)OCO4)CC2=O)cc1 (centres undefined)	-12%
83	CCCCN1C(=N)N([C@@H](C)CN2CCC[C@H]2CN2C(N)=NC[C@H]2C(C)C)C[C@H]1[C@H](C)CC	6%
84	CN(C)S(=O)(=O)c1ccc(NC(=O)N2CCN(c3ccccc3)CC2)cc1	-11%
85	O=C(NC(=S)/C(=C1\CCCCCN1)[N+](=O)[O-])c1ccccc1	-23%
86	Cc1nnc(SCC(=O)Nc2cccc(S(N)(=O)=O)c2)n1-c1ccccc1	-8%
87	CCOC(=O)CSc1nnc(Cn2c(=O)sc3ccccc32)n1C	-16%
88	O=C(COc1ccc([N+](=O)[O-])cc1)Nc1ccccc1C(=O)NC1CC1	-5%
89	O=C(c1ccc2c(c1)OCO2)N1CCCc2ccccc21	10%
90	COc1ccc(C(CC(=O)O)NC(=O)COc2ccc(C)cc2)cc1OC (centres undefined)	-12%

no.	Structure	VDR inh
91	Cc1cccc(CSc2nc3sc(C)c(C)c3c(=O)n2Cc2ccco2)c1	13%
92	C=CCN1C(=O)/C(=C/c2ccsc2)SC1=S	-14%
93	Cn1c(=O)c2c(=O)cc(NNC(=O)CC#N)[nH]c2n(C)c1=O	-26%
94	COCCNC(=S)N(CCN(C)C)Cc1cc2cc3c(cc2[nH]c1=O)OCO3	-5%
95	O=[N+]([O-])c1cc2c(cc1/C=N\NS(=O)(=O)c1ccccc1)OCO2	-69%
96	Clc1ccc(Oc2cnns2)c(Cl)c1	-21%
97	COC(=O)c1nn(-c2cccc(C(F)(F)F)c2)c(=O)cc1Sc1ccccn1	-7%
98	Cc1ccc(-c2csc3ncn(/N=C/N(C)C)c(=O)c23)o1	6%
99	O=C(CNC(=O)c1cnccn1)Nc1ccc(F)c(F)c1F	6%
100	CC(C)N1CCN(Cc2ccc(Oc3ncccn3)cc2)CC1CCO (centres undefined)	-8%
101	CCOCc1nnc(NC(=O)CCS(=O)(=O)Cc2ccccc2)s1	5%
102	CN1CCN(c2ccc(NC(=O)COc3ccccc3)cc2Cl)CC1	2%
103	O=C(c1cnn2c(C(F)(F)F)cc(-c3ccco3)nc12)N1CCc2ccccc2C1	-5%
104	COc1ccc(OC)c(NC(=O)CSc2nnc(-c3ccco3)n2-c2ccccc2)c1	0%
105	Cc1nc2sc(C(c3ccccc3)N3CC(C)OC(C)C3)c(O)n2n1 (centres undefined)	6%

Single values from the results shown.
Entry of `Cc1cccc(CSc2nc3sc(C)c(C)c3c(=O)n2Cc2ccco2)c1` under VDR inh: 13%
Entry of `Cc1ccc(-c2csc3ncn(/N=C/N(C)C)c(=O)c23)o1` under VDR inh: 6%
Entry of `COCCNC(=S)N(CCN(C)C)Cc1cc2cc3c(cc2[nH]c1=O)OCO3` under VDR inh: -5%
Entry of `O=[N+]([O-])c1cc2c(cc1/C=N\NS(=O)(=O)c1ccccc1)OCO2` under VDR inh: -69%

The listing continues.
no.	Structure	VDR inh
106	Cc1cc(C)n2nc(C(=O)N/N=C/c3cccc(Cl)c3)nc2n1	10%
107	C=CCn1c(N2C(=O)CC(Cc3ccccc3)C2=O)nc2ccccc21 (centres undefined)	8%
108	Cc1ccc(S(=O)(=O)N2CCN(C(=O)CCC(=O)NC3CCCc4ccccc43)CC2)cc1 (centres undefined)	5%
109	O=c1oc2ccccc2c2c1nc(C(F)(F)F)n2-c1ccccc1	-5%
110	Cc1cccc(CNC(=O)c2cccc(NC(=O)N3CCSc4ncccc43)c2)c1	10%
111	COc1ccc(Cn2cc(C(=O)c3ccccc3)c(=O)c3cc(OC)ccc32)cc1	4%
112	CCn1c(CNC(=O)COc2ccc(C(C)C)cc2)nnc1SCC(=O)Nc1ccccc1C(C)C	9%
113	CCOC(=O)C1CCCN(C(=O)Cn2sc3nc(C)cc(C)c3c2=O)C1 (centres undefined)	?
114	CCOC(=O)c1c(NC(=O)c2cc(C)on2)c2cc([N+](=O)[O-])ccc2n1C	-9%
115	CCOC(=O)CSc1nnc(CNC(=O)c2cccc(C)c2)n1-c1ccccc1OC	-6%
116	CSc1ccccc1NC(=O)CSc1nnc(CNC(=O)c2ccccc2F)n1C	10%
117	CCOC(=O)c1c(C)nc2c(c1-c1ccccc1)C(=O)CCC2	-9%
118	COc1cc2c(cc1OC)C(c1ccc(Br)cc1)N(C(=O)c1ccccc1C(=O)O)CC2 (centres undefined)	8%
119	CCc1nnc(N/N=C/c2cccs2)n1N	3%
120	Cc1cccc(NC(=O)c2c(NC(=O)c3ccccc3)sc3c2CCCC3)c1	79µM*

Pulled by structure from above:
no.	Structure	VDR inh
117	CCOC(=O)c1c(C)nc2c(c1-c1ccccc1)C(=O)CCC2	-9%
106	Cc1cc(C)n2nc(C(=O)N/N=C/c3cccc(Cl)c3)nc2n1	10%
109	O=c1oc2ccccc2c2c1nc(C(F)(F)F)n2-c1ccccc1	-5%
114	CCOC(=O)c1c(NC(=O)c2cc(C)on2)c2cc([N+](=O)[O-])ccc2n1C	-9%

(more compounds)
no.	Structure	VDR inh
121	CC1CCCCN1S(=O)(=O)c1ccc(-n2cnnn2)cc1 (centres undefined)	65%[activator]
122	CCC(=O)N1CCc2cc(Br)cc(S(=O)(=O)N3CCN(c4ccccc4)CC3)c21	4%
123	CSc1nsc(SCC(=O)Nc2ccccn2)n1	-24%
124	Cc1ccc2nc(Cl)c3cc(C(=O)NC4CCCCC4)sc3c2c1	-17%
125	Cc1cccc(N(CC(=O)NC(C)c2ccccc2)S(=O)(=O)c2ccccc2)c1C (centres undefined)	2%

Some of the compounds tested; count on the stated rates, not on these rows.
